CtBP-E1A blk: CtBP/E1A binding inhibition; AlphaScreen GST-E1A/His-CtBP binding, 1536-well; active compounds read low; control for the full effect not named in the record; hit rate 0.49% among 340,000; activity change, % (concentration not given with the values); in the data active means activity change below about -65%; inconclusive means about -30% to -65%; inactive means above about -30%; note: % is set by controls: 0 for no effect and ±100 for the full control effect
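Homogeneous bead-based format: GST-tagged E1A captured on glutathione donor beads, His-tagged CtBP on nickel acceptor beads; compounds precede bead addition by 2 h at 37 °C.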
PINK1 expr mod: modulators of PINK1 expression | PINK1 immunofluorescence, high-content cytometry, 24 h | AID 624263 | hit rate 0.2% among 410,000 | Potency, µM (highest dose often 76.6 µM), for inactives: at the top dose activation (PINK1 increase), usual class: activators; active = well fitted activation curve with a large enough effect; inconclusive = small, poorly fitted or top-dose-only effect; inactive = flat fitted curve, though single readings scatter; cell line not stated here;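 note: potency is the fitted concentration of half-maximal effect; % of control where 0% means no effect; nearly all actives have a fitted effect of over 65% in size; a mitochondrial uncoupler was the plate control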
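Stable cell line, 250 cells/well, 12 h attachment; compounds pinned at 5 concentrations, 24 h; CCCP control. Fixed with nuclear dye, primary antibodies 12 h at 10 degrees C, secondary plus cell stain; laser-scanning cytometer read.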
Six1-Eya2 inh: Six1/Eya2 interaction inhibition; AID 651725; AlphaScreen GST-Six1/His-Eya2 binding, biochemical; active compounds read low; control for the full effect not named in the record; hit rate 0.56% among 360,000; activity change, % (test concentration not listed); Q15475+O00167; in the data active = activity change below about -65%; inconclusive = about -30% to -65%; inactive = above about -30%; note: % is set by controls: 0 for no effect and ±100 for the full control effect
Target sequence (O00167 whole entry, looked up): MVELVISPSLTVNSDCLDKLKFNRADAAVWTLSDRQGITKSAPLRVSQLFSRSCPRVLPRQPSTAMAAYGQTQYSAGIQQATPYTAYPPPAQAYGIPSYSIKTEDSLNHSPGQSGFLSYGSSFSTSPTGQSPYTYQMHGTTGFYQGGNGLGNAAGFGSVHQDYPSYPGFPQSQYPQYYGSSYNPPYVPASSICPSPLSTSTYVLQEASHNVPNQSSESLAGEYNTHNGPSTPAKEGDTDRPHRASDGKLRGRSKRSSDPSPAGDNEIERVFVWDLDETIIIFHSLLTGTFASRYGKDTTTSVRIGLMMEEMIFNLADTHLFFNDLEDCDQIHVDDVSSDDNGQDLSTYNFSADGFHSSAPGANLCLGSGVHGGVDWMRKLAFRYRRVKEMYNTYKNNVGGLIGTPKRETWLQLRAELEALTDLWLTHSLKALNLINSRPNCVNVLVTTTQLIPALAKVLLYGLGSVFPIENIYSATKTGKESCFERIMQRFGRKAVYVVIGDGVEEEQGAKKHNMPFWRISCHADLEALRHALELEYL
Target sequence (Q15475 whole entry, looked up): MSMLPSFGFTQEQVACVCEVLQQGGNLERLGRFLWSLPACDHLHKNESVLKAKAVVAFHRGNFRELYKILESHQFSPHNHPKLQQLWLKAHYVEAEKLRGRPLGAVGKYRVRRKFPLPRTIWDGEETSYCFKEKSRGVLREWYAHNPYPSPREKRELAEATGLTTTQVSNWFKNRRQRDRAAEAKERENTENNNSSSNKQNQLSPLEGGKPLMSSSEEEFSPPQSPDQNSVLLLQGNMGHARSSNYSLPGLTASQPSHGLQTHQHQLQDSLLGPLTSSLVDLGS
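Six1/Eya2 binding was read as AlphaScreen signal after compounds were pinned into GST-Six1 plus His-tagged Eya2 (5X stock 250/500 nM) in pH 8.0 Tris/NaCl/TCEP buffer, beads added, then incubated 1 h, 37 C, dark.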
D2 ag: activates the human D2 dopamine receptor; P14416; DiscoveRx PathHunter D2 beta-arrestin, luminescence, 90 min; 100% = 57 uM dopamine signal; activation, % (no concentration beside the values); hit rate 0.084% among 360,000; in the data active = activation above about 40%; inconclusive = about 15% to 40%; inactive = below about 15%; note: compound concentration not given in the record; the text of the record calls up to 30% inactive
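Agonist mode: compounds alone added to overnight-plated D2 PathHunter cells for 90 min at 37 C, with 57 uM final dopamine (EC100) defining full response. Beta-arrestin recruitment detected by chemiluminescent reagent, read after 1 h at ambient temperature.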
TRPML1 agonist: activates the human TRPML1 channel | TRPML1-expressing cells, Ca2+ dye fluorescence, FDSS; host cell line not named in the record; reference of the full effect not given here | activation, % (concentration not given with the values) | hit rate 0.12% among 410,000; in the data active = activation above about 50%; inconclusive = about 30% to 50%; inactive = below about 30%; note: 0% is about no effect; the text of the record puts the active cut at 80%
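Cells: TRPML1-DL, 1X Tet inducer, ~16 h at 37 degrees C/5% CO2. Dye: ABD Ca8 no-wash + quencher, 45-90 min RT. Read: 10 s baseline, compound add, 110 s agonist phase; 54-4 EC80 (4uM final), 110 s antagonist phase.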
D2 potentiator: potentiates the human D2 dopamine receptor allosterically; DiscoveRx D2 beta-arrestin cells, luminescence, 90 min; 100% = 57 uM dopamine signal; potentiation, % (test concentration not listed); AID 624464; hit rate 0.23% among 360,000; active = potentiation of 50% or more; inconclusive = 30% to 50%; inactive = 30% or less;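 note: compound concentration not given in the record; tested on top of an EC20 dose of dopamine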
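PathHunter D2 cells, attached overnight at 37 deg C, received compound in DMSO plus dopamine at EC20 (50 nM final) for 90 min at 37 deg C. Beta-arrestin recruitment was read as luminescence after 1 h with detection reagent at ambient temperature.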
* hit, by the source's call; u = inconclusive; x = not tested or not shown; & = joins results of further samples; [ ] = remark or other dose.

Each structure is followed by: CtBP-E1A blk, D2 potentiator, TRPML1 agonist, D2 ag, PINK1 expr mod, Six1-Eya2 inh
O=C(c1ccc(F)cc1)N1CCN(c2cnn(-c3ccccc3)c(=O)c2Cl)CC1
    -12, -1, -0.1, -1.2, -1.8%, -15
COc1ccccc1N1CCN(C(=O)c2cc3cc(F)ccc3[nH]2)CC1
    -3, -5, 1.5, 0.8, 2.6%, -12
Cc1ccc(NS(=O)(=O)c2cc(NC(=O)c3ccc4c(c3)NC(=O)CS4)ccc2C)c(C)c1
    -17, -4, 2.0, -0.7, 2.0%, -13
Cc1ccc(CN2CCNC(=O)C2CC(=O)N(C)C(C2CC2)C2CC2)o1 (configuration not stated)
    7, -5, 0.1, -0.1, 5.2%, -2
Cc1cc(C)cc(S(=O)(=O)Cc2noc(C(=O)NCc3ccccc3)c2C(=O)NCc2ccccc2)c1
    -1, -19, 0.1, -1.4, 0.6%, -7
COc1ccc(C2=CC(=O)OC3(CCCC3)O2)cc1
    5, -15, 0.9, -0.9, -0.8%, 9
O=C(Nc1cccc(S(=O)(=O)N2CCOCC2)c1)c1ccc(=O)[nH]c1
    1, -6, -0.2, -6.1, -1.4%, -4
Cc1ccc(Cl)cc1NC(=S)N/N=C/c1cccc2ccccc12
    -7, -15, 1.7, 2.6, 2.1%, -15
CN(CCOc1ccccc1)C(=O)C1CCN(C(=O)c2ccc(Cl)cc2)CC1
    -3, -22, 0.2, -3.2, 0.7%, 0
O=C(Cn1cnc([N+](=O)[O-])n1)NCCc1ccccc1
    -4, 6, -0.3, -0.2, -1.8%, -5
COc1cccc(CN2CCN(Cc3ccc(OC)c(OC)c3)CC2CCO)c1 (configuration not stated)
    -1, -3, -1.1, -4.8, 0.1%, 2
COCCNC(=O)C1(C)CCN(C(=O)c2sccc2C)C1 (configuration not stated)
    1, -4, 0.5, -5.3, 1.3%, -2
CC(Sc1nnc(-c2ccc(OC(F)F)cc2)o1)C(=O)NCC1CCCO1 (configuration not stated)
    9, -6, 0.6, -3.1, 1.3%, 5
Cc1noc(C)c1NC(=O)N(C)C[C@H]1OCCCC[C@@H](C)Oc2ccc(NC(=O)c3ccccc3)cc2C(=O)N([C@H](C)CO)C[C@@H]1C
    -9, -2, -0.2, -2.3, -0.4%, 2
CC(=O)c1ccc(Nc2nc(-c3ccccc3)nc3ccccc23)cc1
    0, -1, 0.6, -1.4, 3.6%, -11
CCNS(=O)(=O)c1ccc(OC)c(C(=O)NC2CCCCC2)c1
    8, -2, -0.2, 1.8, -0.4%, -6
CCOC(=O)[C@H]1[C@H]2COc3ccc(Br)cc3[C@@H]2N2C(=O)CN(CC3CCCO3)C(=O)[C@@]12C (some centres not stated)
    7, -8, -0.2, -1.1, -0.6%, 0
C/C(=N/O)c1cccc(N2Cc3ccccc3C2)c1
    1, 0, -0.2, 5.5, 7.1%, -1
OC[C@@H]1CN(Cc2ccc(F)cc2)C[C@H](n2cnc3c(Nc4ccccc4)ncnc32)O1
    1, 16, -0.8, 5.4, 4.8%, 0
Cc1nn(C)c(Oc2cccc(C(F)(F)F)c2)c1C#N
    9, -3, -0.3, 0.4, 1.4%, 0

Arranged by SMILES length (descending): some entries from above
Each structure is followed by: CtBP-E1A blk, D2 potentiator, TRPML1 agonist, D2 ag, PINK1 expr mod, Six1-Eya2 inh
Cc1noc(C)c1NC(=O)N(C)C[C@H]1OCCCC[C@@H](C)Oc2ccc(NC(=O)c3ccccc3)cc2C(=O)N([C@H](C)CO)C[C@@H]1C
    -9, -2, -0.2, -2.3, -0.4%, 2
CCOC(=O)[C@H]1[C@H]2COc3ccc(Br)cc3[C@@H]2N2C(=O)CN(CC3CCCO3)C(=O)[C@@]12C (some centres not stated)
    7, -8, -0.2, -1.1, -0.6%, 0
CN(CCOc1ccccc1)C(=O)C1CCN(C(=O)c2ccc(Cl)cc2)CC1
    -3, -22, 0.2, -3.2, 0.7%, 0
CC(Sc1nnc(-c2ccc(OC(F)F)cc2)o1)C(=O)NCC1CCCO1 (configuration not stated)
    9, -6, 0.6, -3.1, 1.3%, 5
COc1cccc(CN2CCN(Cc3ccc(OC)c(OC)c3)CC2CCO)c1 (configuration not stated)
    -1, -3, -1.1, -4.8, 0.1%, 2
CC(=O)c1ccc(Nc2nc(-c3ccccc3)nc3ccccc23)cc1
    0, -1, 0.6, -1.4, 3.6%, -11
CCNS(=O)(=O)c1ccc(OC)c(C(=O)NC2CCCCC2)c1
    8, -2, -0.2, 1.8, -0.4%, -6
O=C(Cn1cnc([N+](=O)[O-])n1)NCCc1ccccc1
    -4, 6, -0.3, -0.2, -1.8%, -5
Cc1nn(C)c(Oc2cccc(C(F)(F)F)c2)c1C#N
    9, -3, -0.3, 0.4, 1.4%, 0

Further records
Each structure is followed by: CtBP-E1A blk, D2 potentiator, TRPML1 agonist, D2 ag, PINK1 expr mod, Six1-Eya2 inh
CCOC(=O)c1c(N)nn(C(=O)c2ccccc2)c1-c1ccccc1
    -1, -5, 4.1, -4.1, -1.1%, 3
N#Cc1cc2c(nc1SCc1ccccc1)CCCC2
    13, 1, 2.4, -3.3, -0.1%, 9
Cc1cc2cc(CNC(=O)NC3CCCCC3)ccc2n1C
    -1, -2, -0.9, -1.6, 4.0%, 3
Cc1ccc(Cn2ccc(NC(=O)c3cc(-c4ccc(F)cc4)on3)n2)cc1
    7, -5, 4.9, -2.7, u, 3
Cc1ccc(C(=O)N(CC(=O)NC2CCCCC2)c2ccccc2C)s1
    7, -6, 0.3, 1.7, 13%[38.3 µM], -4
O=C(COC(=O)C1CCCCC1)Nc1ccc([N+](=O)[O-])cc1
    2, -3, -0.2, -10, 3.5%, 3
NC(=O)[C@@H]1CCCN1C(=O)[C@@H](Cc1cnc[nH]1)NC(=O)[C@@H]1CCC(=O)N1
    19, -7, 0.3, 0.2, -0.1%, u
COc1ccc(CN(C)C(=O)/C=C/[C@H]2O[C@@H](n3cnc4c(N)ncnc43)[C@H](O)[C@@H]2O)cc1OC
    0, -2, -0.4, -4.3, -0.2%, -3
OCCCn1c(CCNc2nc(-c3ccc(Cl)cc3)cs2)nc2cc(C(F)(F)F)ccc21
    1, -8, -0.2, -1.5, 20%, 4
CCOC(=O)CC(=O)CSc1ncnc2c1oc1ccccc12
    -2, 0, -0.2, -1.1, -1.3%, -2
Cc1nc2ccccc2c(=O)n1/N=C/c1cn[nH]c1-c1ccccc1
    0, 6, 7.4, 3.7, 2.0%, -13
O=C1NCCCN1C1OC(CO)C(O)C1O (configuration not stated)
    5, -2, -0.9, -3.8, -0.5%, 1
Cc1noc(NS(=O)(=O)c2ccc(NC(=O)CSc3ncccn3)cc2)c1C
    1, -9, 0.0, -5.1, -0.2%, 6
CCN(CC)c1ccc(NC(=O)CN2CCN(c3ccccc3F)CC2)cc1
    0, -6, 0.7&0.4, -1.3, -0.3%&0.0%, 0
COC(=O)c1ccc2nc(-c3ccc(OC)c(OC)c3)c(Cc3ccsc3)n2c1
    -10, -3, 0.1, -3.2, 1.0%, -4
COc1cc(NC(=O)Nc2cccc3cccnc23)cc(OC)c1OC
    -1, 0, 0.5, 1.8, 4.7%, -10
Cc1ccc(S(=O)(=O)NCCCC(=O)C=[N+]=[N-])cc1
    0, 1, -0.2, -2.2, -1.4%, -2
COC(=O)c1ccc(C(=O)OC)c(NC(=O)COC(=O)C2CCC(C(C)(C)C)CC2)c1 (configuration not stated)
    -1, -7, 0.7, -3.7, 12%, 8
CC(C)CN(C(=O)CSc1nc2ccccc2c(=O)[nH]1)c1c(N)n(CC(C)C)c(=O)[nH]c1=O
    2, -10, 1.2, -2.5, 0.9%, 24
COc1ccc(C2C(C(=O)c3cccs3)=C(O)C(=O)N2Cc2cccnc2)cc1OC (configuration not stated)
    4, -5, 0.1, -3.5, -1.1%, 10
CCCCN(CCCC)S(=O)(=O)c1ccc(OC)c2ncccc12
    5, 11, 0.0, -1.7, 0.8%, 0
CCN(CC)CCNCC(O)(c1ccc(Cl)cc1)c1ccc(Cl)cc1
    -3, -16, 0.1, -1.4, -0.1%, -2
CC(C(=O)Nc1nc(-c2ccc(F)cc2)cs1)N1C(=O)C2CC=CCC2C1=O (configuration not stated)
    -4, u, 1.3, 5.7, 0.7%, 0
O=C(c1ccc2c(c1)OCO2)N1CCC2(CC1)Oc1ccc(Cl)cc1C(=O)C21CC(c2ccccc2)=NO1 (configuration not stated)
    -8, -11, -0.2, -2.1, -0.7%, -17
COc1cccc(C(=O)c2ncc(C(F)(F)F)cc2Cl)c1
    0, -2, 0.0, 0.7, 0.6%, 4
Cc1nn(CC(=O)NCc2cccnc2)c(C)c1[N+](=O)[O-]
    -1, -6, -0.4, 1.7, -0.5%, -7
Cc1cc(N2C(=O)C(O)=C(C(=O)c3ccc(C)o3)C2c2cccc(Oc3ccccc3)c2)no1 (configuration not stated)
    -1, -9, 1.1, -5.2, -0.5%, -8
CN1CCN(CCCNC(=O)c2cc3c(=O)oc4ccccc4c3s2)CC1
    -1, -6, -0.9, -1.6, 0.6%, -8
COC(=O)c1ccccc1N=Nc1c(N)n[nH]c1N
    -29, -2, -0.9, -10, -0.3%, u
Cc1cnc(C(=O)N(CC(C)C)c2c(N)n(CC(C)C)c(=O)[nH]c2=O)cn1
    2, -24, -0.4, -8.6, 3.2%, 0
Cc1cc(/C=C2\SC(=Nc3ccc(N4CCOCC4)cc3)N(C)C2=O)c(C)n1-c1cccnc1
    7, -21, -0.6, -0.1, u, -11
COc1ccc(/C(N)=N/OC(=O)c2ccco2)cc1
    u, 19, -0.7, 2.9, 2.2%, -15
CC(C)CC(C(=O)Oc1ccc2c3c(c(=O)oc2c1)CCC3)N1C(=O)c2ccccc2C1=O (configuration not stated)
    12, -2, 0.2, 2.7, 3.0%, -2
Cc1ccc(CN(C)C(=O)c2ccc(S(=O)(=O)N3CCCCCC3)cc2)o1
    0, -4, -0.4, -3.6, 2.9%, -9
COc1ccc(-c2csc(C3=C(O)CN(C(C)C)C3=N)n2)cc1OC
    -77*, -10, 1.4, 2.7, 0.6%, u
COC1CCCN(Cc2nc(Cc3ccccc3F)no2)C1 (configuration not stated)
    3, -7, -0.2, -2.2, 0.4%, 2
CCCS(=O)(=O)N1CCCC(C(=O)NCCN2CCC(Cc3ccccc3)CC2)C1 (configuration not stated)
    6, -22, 0.3, -0.3, -0.5%, 2
COc1ccc(-c2occ(C(=O)O)c2C(=O)O)cc1
    2, -6, -0.5, -0.5, x, 3
O=C(c1cc([N+](=O)[O-])[nH]n1)N1CCSCC1
    2, -5, -0.4, -1.1, -0.8%, 3
CCOc1cc2c(cc1OC)C(c1cccc([N+](=O)[O-])c1)NCC2 (configuration not stated)
    x, -10, -0.3, 4.1, -0.8%, -1
CCOC(=O)CCCc1sc(N)nc1-c1[nH]c(=O)[nH]c1C
    -22, -2, -0.4, -4.8, -1.6%[38.3 µM], u
COc1ccccc1/C=C1\C(=O)Nc2ccccc21
    x, -3, -0.8, -3.6, 3.4%, 0
CC(=O)N(c1nc(/C=C\C(=O)O)cs1)c1ccccc1F
    2, -5, 1.0, -1.1, -1.1%, 14
O=C(CCCOc1ccccc1)Nc1cccc(S(=O)(=O)N2CCCCCC2)c1
    8, -2, 4.4, 4.5, 1.5%, -7
Cc1ccc(CN(C)C(=O)c2cccc(S(=O)(=O)N3CCCC3)c2)o1
    -5, -3, 0.1, -2.5, 0.4%, -1

From PubChem
